High-throughput results as filed in PubChem.
PINK1 modulator – changes PINK1 expression. actives 0.2% (n = 410,000). PINK1 immunofluorescence, high-content cytometry, 24 h. Potency, µM (highest dose often 76.6 µM), without a hit: at the highest dose activation (PINK1 increase), actives largely listed as activators. AID 624263; active = well fitted activation curve with a large enough effect; inconclusive = small, poorly fitted or top-dose-only effect; inactive = flat fitted curve, though single readings scatter; cell line not stated here;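 also: potency is read from the fitted curve at half-maximal effect; % of control where 0% means no effect; nearly all actives have a fitted effect of over 65% in size; a mitochondrial uncoupler was the plate control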
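Stable cell line treated 24 h with compounds at 5 concentrations (CCCP controls), then fixed and immunostained for PINK1 plus nuclear and cell stains; PINK1 immunofluorescence quantified by laser-scanning microplate cytometry.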
TRPV1 PAM – potentiators of human vanilloid receptor 1 (TRPV1); actives 0.02% (n = 320,000); Q8NER1; TRPV1-expressing cells, Fluo-8 calcium influx, capsaicin EC20 potentiation; host cell line not named in the record; control for the full effect not named in the record; potentiation, % at 8.33 µM; active means potentiation above 80%; inconclusive means 30% to 80%; inactive means below 30%; also: 0% is about no effect
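Cells expressing TRPV1 were dye-loaded with Fluo-8 and read kinetically: 10 s baseline, 3 min after compound (agonist portion), then 2 min after EC20 capsaicin (allosteric enhancer portion). Calcium-bound dye fluorescence at 480/520 nm.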
TRPML1 blocker – blocks the human TRPML1 channel | Q9GZU1 | TRPML1-inducible cells, Ca2+ dye fluorescence, FDSS; stronger effect = lower value; inhibition of EC80 agonist-evoked calcium signal | activity change, negative = inhibition, % (test concentration not listed) | actives 0.02% (n = 390,000) | AID 624415; in the data active means activity change below about -50%; inconclusive means about -30% to -50%; inactive means above about -30%;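 also: stimulus is agonist 54-4 at its EC80 concentration; % is scaled to controls: 0 for no effect and ±100 for the full control effect; compound concentration not given in the record; the text of the record puts the active cut at -80%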
Target sequence (Q9GZU1 whole entry, looked up): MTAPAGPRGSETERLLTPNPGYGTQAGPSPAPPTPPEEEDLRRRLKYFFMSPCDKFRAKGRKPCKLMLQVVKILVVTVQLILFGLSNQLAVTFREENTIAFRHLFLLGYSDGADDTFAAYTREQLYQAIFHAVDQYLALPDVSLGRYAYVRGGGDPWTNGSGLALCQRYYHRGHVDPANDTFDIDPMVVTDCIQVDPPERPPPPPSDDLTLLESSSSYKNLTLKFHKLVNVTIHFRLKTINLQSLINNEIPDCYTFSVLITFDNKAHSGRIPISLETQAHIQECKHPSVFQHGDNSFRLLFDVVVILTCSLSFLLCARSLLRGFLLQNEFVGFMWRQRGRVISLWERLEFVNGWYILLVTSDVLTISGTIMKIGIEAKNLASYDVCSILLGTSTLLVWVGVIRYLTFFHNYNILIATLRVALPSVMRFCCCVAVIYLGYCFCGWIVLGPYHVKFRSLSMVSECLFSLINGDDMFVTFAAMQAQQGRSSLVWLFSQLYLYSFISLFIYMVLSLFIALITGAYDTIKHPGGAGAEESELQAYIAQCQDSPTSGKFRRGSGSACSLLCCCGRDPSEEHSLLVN
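TRPML1-DL cells, Tet-induced overnight (~16 h, 37 °C) at 1,500 cells/well, were loaded with Ca8 no-wash dye plus quencher for 45-90 min at room temperature. Compounds were pinned during FDSS kinetic reading; agonist 54-4 at EC80 (4 uM final) then added.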
ClpP mod – qHTS Assay for Activators of ClpP; ATP-dependent Clp protease proteolytic subunit (Bacillus subtilis (strain 168)), P80244; purified B. subtilis ClpP, FRET peptide cleavage, 20 min; Potency, µM (highest dose often 57.5 µM), without a hit: at the top dose activity change, negative = active; actives 1.9% (n = 340,000); AID 651965, 2013; active = well fitted falling curve with a large enough effect; inconclusive = small, poorly fitted or top-dose-only effect; inactive = no such curve, though single readings can be large or run the other way; also: potency is read from the fitted curve at half-maximal effect; the source files actives as falling curves though it sought activators and does not explain the sign; nearly all actives have a fitted effect of over 65% in size; many hits overshoot -100%
Target sequence (P80244 whole entry, looked up): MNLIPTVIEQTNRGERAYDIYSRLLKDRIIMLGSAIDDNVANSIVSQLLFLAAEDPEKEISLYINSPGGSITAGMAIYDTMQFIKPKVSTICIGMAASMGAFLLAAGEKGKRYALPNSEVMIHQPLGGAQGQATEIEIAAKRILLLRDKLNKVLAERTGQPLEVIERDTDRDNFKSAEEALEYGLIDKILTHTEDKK
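Buffer: 100 mM Tris/HCl pH8, 100 mM KCl, 0.05% low protease BSA, 2.5% glycerol, 0.01% Tween-20. ClpP 10 microg/mL final; 20 min RT; delta FRET normalized to ADEP and DMSO controls.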
TRPML1 agonist – human mucolipin-1 channel agonism; Q9GZU1; TRPML1-expressing cells, Ca2+ dye fluorescence, FDSS; host cell line not named in the record; reference of the full effect not given here; activation, % (concentration not given with the values); actives 0.12% (n = 410,000); in the data active = activation above about 50%; inconclusive = about 30% to 50%; inactive = below about 30%; also: 0% is about no effect; the text of the record puts the active cut at 80%
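Calcium fluorescence on an FDSS kinetic reader gave the read-out. Tet-induced TRPML1-DL cells were plated overnight, dye-loaded (Ca8 with quencher, 45-90 min, room temperature, dark), then read 110 s after compound addition, and again 110 s after 4uM final 54-4 (EC80).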
Menin-MLL FL inh – displaces fluorescein MLL peptide from human menin; FP activity change, % at 61.4 µM; Fluorescence polarization, fluorescein-MLL peptide displacement from menin; 290,000 tested, under 10 active; inconclusive = falling polarisation curve, or a change in total fluorescence; inactive = total fluorescence flat and polarisation flat or rising; no compound was filed as active; the % refers to the polarisation; negative = inhibition;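 also: % of control where 0% means no effect; inhibitors lower the polarisation; unlabelled MLL peptide was the positive control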
Sfp inh – Sfp phosphopantetheinyl transferase inhibition | Biochemical Sfp PPTase activity, qHTS | actives 3.5% (n = 310,000) | Potency, µM, without a hit: max response, negative = inhibition, hits mostly inhibitors | AID 1490 | Q9F4F7; active = well fitted inhibition curve with a large enough effect; inconclusive = small, poorly fitted or top-dose-only effect, or another doubt; inactive = no such curve, though single readings can be large or run the other way;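 also: the enzyme is Sfp with the accession as filed and its product quenches rhodamine fluorescence; potency is read from the fitted curve at half-maximal effect; 0% = enzyme reaction without inhibitor and -100% = no enzyme wells; top concentration of the series not given in the record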
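After 15 min at room temperature with compound, 15 nM Sfp received 5 uM rhodamine-CoA plus 12.5 uM BHQ-2-ybbR (50 mM Hepes pH 7.6, 10 mM MgCl2). Rate came from the fluorescence difference over 30 min, ex 525/em 598 nm.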
An asterisk follows results filed as active; ? = inconclusive; · = no result given; & = joins results of further samples; [ ] = another dose, or the depositor's remark.

SMILES	PINK1 modulator	TRPV1 PAM	TRPML1 blocker	ClpP mod	TRPML1 agonist	Menin-MLL FL inh	Sfp inh
CCCn1c(CN2CCCCC2CC)nc2c1c(=O)n(C)c(=O)n2C (stereo not given)	0.3%	16	-3	-0.4%	-0.1	2.6	7%
CC(C)N1CCC(N2CCN(C3CCCCCC3)CC2CCO)CC1 (stereo not given)	-0.1%	10	-4	-1.7%	0.2	-5.6	13%
Cc1ccc(CNC(=O)c2cc(-c3ccccc3)nn2Cc2cc(C)no2)cc1	1.0%	-5	-9	0.5%	0.2	·	·
CCCN1C2CCCC1CC(NC(=O)C1CCCCC1)C2 (stereo not given)	-1.0%	-22	40	1.0%	0.4	0.9	14%
CC1CN(C(=O)CSc2cn(CC(=O)N3CCOCC3)c3ccccc23)CC(C)O1 (stereo not given)	-1.5%	1	-5	-2.5%	0.8	-2.5	13%
COc1ccc(S(=O)(=O)NC(C)C(=O)N2CCCC2)cc1Cl (stereo not given)	0.1%	0	16	-1.6%	-0.2	-5.6	-3%
CCCc1cc(=O)[nH]c(Nc2ccc(OC)c(Cl)c2)n1	2.5%	-1	6	-1.7%	2.0	2.9	-20%
O=C1N(c2ccccc2)C(c2ccccc2)C12CCCCC2 (stereo not given)	4.2%	·	-5	2.6%	0.1	·	·
COc1ccccc1NC(=O)Cn1c(=O)n(CC(=O)NCc2ccccc2Cl)c(=O)c2sccc21	1.8%	·	4	-0.6%	0.7	·	·
CCN(C(=O)Cn1c(=O)nc(-c2ccccc2)c2cc(Cl)ccc21)c1cccc(C)c1	0.2%	·	?	1.8%	1.7	·	·
COc1ccc(C2=C(CC(=O)O)C(=O)CC2)cc1	-2.9%	0	6	?	-0.1	6.4	17%
CCN1C[C@@H]2[C@@H]3C(=O)N(Cc4ccccc4)C(=O)[C@@H]3[C@](CC)(C(=O)OC)N2C1=NC	-0.2%	·	-17	-1.0%	2.7	·	·
CCOC(=O)C1=C(CSc2nc(-c3ccccc3)ccc2C#N)OC(N)=C(C#N)C1c1cccnc1 (stereo not given)	1.4%	0	-3	27%	6.4	?	56µM*
CCOc1ccc(-c2oc3ccc(C)cc3c(=O)c2O)cc1	0.8%	·	10	-20%	3.0	·	·
CC(=O)N1CCN(C2=NC(=O)/C(=C\c3cccs3)S2)CC1	0.2%	15	-23	·	-0.2	-8.3	18%
CCOC(=O)c1ccc(NC(=O)c2nc[nH]c2C(=O)N[C@@H](CC(C)C)C(=O)OC(C)(C)C)cc1	5.9%	-4	-9	?	-0.2	3.3	25%
Cc1cc(C)n(Cc2ccc(NC(=O)c3c([N+](=O)[O-])c(C)nn3C)cc2)n1	3.8%[38.3 µM]	26	-4	-0.5%	-0.3	0.5	-17%
CSC1=N/C(=C\c2ccccc2)C(=O)N1C	0.3%[38.3 µM]	·	14	0.4%	-0.5	1.2	5%
COCCN1Cc2cccc(C(=O)Nc3ccc(C)c(C)c3)c2C1=O	3.6%	18	-13	33%	0.3	-2.5	0%
CCc1cccc(C)c1NC(=O)C1CCN(S(=O)(=O)c2cc(Br)cc3c2N(C(C)=O)CC3)CC1	0.5%	·	-15	0.8%	2.9	·	·
COc1ccc(NC(=O)CN2CCN(CC(=O)Nc3cc(OC)cc(OC)c3)CC2)cc1	1.1%	8	-22	-1.7%	-0.7	9.6	-5%
O=C(OCC(=O)N1CCN(C(=O)c2ccco2)CC1)c1cc(-c2ccc(Cl)c(Cl)c2Cl)nc2ccccc12	1.0%	3	1	54%	0.5	1.9	-17%
O=C(NCCN1CCCC1)c1ccc(Br)cc1	-0.8%	-3	35	0.4%	-0.2	-0.1	-1%
CCN(CCCNC(=O)c1c(C)cc(=O)oc1C)c1ccccc1	?	-19	8	2.2%	1.0	-1.6	-8%
O=[N+]([O-])c1cccc(/C=N/NS(=O)(=O)c2ccccc2)c1	2.4%	1	-11	·	-0.5	-2.4	0%
Cc1ccc(OCc2nnc(SCC(=O)c3ccccc3)n2Cc2ccco2)cc1	2.9%	-15	-4	-1.4%	2.4	4.3	-29%
Cc1ccccc1N1CCN(CCC(=O)Nc2ccc(F)cc2)CC1	8.7%	-18	·	-1.6%	·	-12	?
COc1cc(/C=C2\SC(=S)N(NC(=O)c3cccnc3)C2=O)ccc1O	-0.2%	11	12	1.6%	13	?	8%
Cc1ccccc1C(=O)N1CC(=O)Nc2ccc(F)cc2C1c1ccc(F)cc1 (stereo not given)	-0.1%	3	-7	32µM*	2.3	-0.1	-8%
CCn1cc(/C=N/N=C2\CCC3C4CCc5cc(O)ccc5C4CC[C@]23C)c(C)n1 (stereo not given in full)	3.7%	1	-7	2.6%	0.8	-1.6	7%
C/C(CC(=O)Nc1cc(C)ccn1)=N\NC(=O)COc1cccc(C)c1	·	14	·	·	·	2.1	16%
COCCNC(=O)CN(c1cc(Cl)ccc1OC)S(C)(=O)=O	1.3%[38.3 µM]	-11	-11	1.4%	-0.3	-1.9	18%
COc1ccc(N(C(=O)c2snc(C(N)=O)c2N)C(C(=O)NC2CCCC2)c2ccc(OC)c(OC)c2)cc1 (stereo not given)	13%	16	8	·	-0.2	1.7	17%
CCC(C)NC(=O)C1c2ccccc2C(=O)N1Cc1ccccc1OC (stereo not given)	0.0%[38.3 µM]	-4	-10	-2.5%	0.6	4.2	2%
C=CCOC(=O)C1=C[C@H](c2csc3ccccc23)[C@@H](CCCO)[C@H](OCC)O1	-0.5%	-6	48	-1.9%	0.6	0.5	?
CCN(CC)S(=O)(=O)c1ccc(C(=O)NCc2ccc3[nH]c4c(c3c2)CCCC4)cc1	0.0%	-2	10	-2.5%	0.4	1.8	5%
COc1ccc(C=Nc2ccc3[nH]ncc3c2)c(O)c1	1.1%	7	24	·	-0.4	-0.2	3%
COc1ccc(C(CC(=O)O)NC(=O)c2ccccc2)cc1OC (stereo not given)	-4.6%	-3	3	0.9%	0.0	4.9	18%
COc1cccc(N2C(=O)Nc3ccccc3C2(O)C(=O)NCc2ccc3c(c2)OCO3)c1 (stereo not given)	2.0%	5	13	0.9%	-0.4	0.1	7%
CC(C)(C)c1ccc(-c2nnc(SCC(=O)c3ccc4c(c3)OCCO4)o2)cc1	4.7%	?	-7	0.7%	-0.8	3.9	?
CN(C)c1nc(SCC#N)nc(N(C)C)n1	·	-5	30	-2.1%	-0.3	-2.7	7%
CCC(CC)C(=O)Nc1ccc(Nc2ccccc2)cc1	-1.2%	-7	-16	0.9%	-0.1	1.9	-11%
COc1ccccc1CNC(=O)CN1C(=O)COc2ccc(S(=O)(=O)NC3CCCC3)cc21	-0.8%&0.1%	3	-4&-11	-2.7%&0.9%	-0.7&0.6	1.0	4%
Cc1nc(-c2ccc(C(=O)N3CCCC3)cc2)cs1	-0.4%	-8	23	·	1.5	-0.4	17%
CO[C@@]1(NC(=O)CSCC#N)C(=O)N2C(C(=O)O)=C(CSc3nnnn3C)CS[C@@H]21	0.3%	0	-3	3.2%	-0.8	0.1&5.7	2%
Cc1ccc(NC(=O)CCNC(=O)c2ccccc2Cl)cc1S(=O)(=O)N1CCOCC1	4.7%	4	9	-1.1%	-0.3	·	·
Oc1[nH]c2ccc(Br)cc2c1N=Nc1ccc(F)cc1	15%	1	5	·	11	?	-2%
CC(C)c1nc(CN(C)C(=O)N[C@H](C(=O)N[C@@H](Cc2ccccc2)C[C@H](O)[C@H](Cc2ccccc2)NC(=O)OCc2cncs2)C(C)C)cs1	·	-3	·	·	·	-5.5&-3.9	4%&25%
Cc1cc(C(=O)CSc2nc3ccccc3[nH]2)c(C)n1Cc1ccco1	1.9%	-33	37	-22%	-0.3	7.0	-10%
C=CCC1(CC=C)CCCN1C(=O)C1CCC(=O)N(CCc2ccc(Cl)cc2)C1 (stereo not given)	-0.4%	-18	6	1.3%	-0.1	·	9%
O=C(C1COc2ccccc2O1)N1CCN(c2ccc(F)cc2)CC1 (stereo not given)	·	10	10	-0.8%	0.6	1.6	15%
S=C1N(c2ccccc2)C(c2cccc3ccccc23)N2CCCN12 (stereo not given)	-0.5%	13	-3	-0.3%	0.6	5.1	8%
CCOC(=O)NC(=O)CSc1nc2ccccc2[nH]1	2.1%	-6	-8	·	-0.2	-3.2	17%
Cc1cccc(-c2nnc(SCC#N)n2C)c1	-0.4%	9	23	0.4%	4.6	0.6	21%
COC(=O)c1ccc(COC(=O)c2ccc(CO)cc2)o1	-0.8%	8	-7	·	0.3	4.4	7%
CC(NC(=O)c1ccc2c(c1)N(Cc1cccc(F)c1)C(=O)c1ccccc1S2)c1ccccc1 (stereo not given)	1.9%	·	47	0.1%	1.5	·	·
Cc1cccc(C)c1NC(=O)COC(=O)C1Cc2ccccc2CN1C(=O)c1ccccc1 (stereo not given)	0.5%	-11	3	1.4%	-1.3	3.4	5%

An excerpt from further up, as a working copy:
SMILES	PINK1 modulator	TRPV1 PAM	TRPML1 blocker	ClpP mod	TRPML1 agonist	Menin-MLL FL inh	Sfp inh
Cc1ccc(NC(=O)CCNC(=O)c2ccccc2Cl)cc1S(=O)(=O)N1CCOCC1	4.7%	4	9	-1.1%	-0.3	·	·
Oc1[nH]c2ccc(Br)cc2c1N=Nc1ccc(F)cc1	15%	1	5	·	11	?	-2%
CC(C)c1nc(CN(C)C(=O)N[C@H](C(=O)N[C@@H](Cc2ccccc2)C[C@H](O)[C@H](Cc2ccccc2)NC(=O)OCc2cncs2)C(C)C)cs1	·	-3	·	·	·	-5.5&-3.9	4%&25%
Cc1cc(C(=O)CSc2nc3ccccc3[nH]2)c(C)n1Cc1ccco1	1.9%	-33	37	-22%	-0.3	7.0	-10%
C=CCC1(CC=C)CCCN1C(=O)C1CCC(=O)N(CCc2ccc(Cl)cc2)C1 (stereo not given)	-0.4%	-18	6	1.3%	-0.1	·	9%
